PD-1 reversal: activators reversing PD-1 mediated T-cell inhibition; primary human CD4 T cells, PD-L1 beads, CellTiter-Glo 96 h; activation, % (no concentration beside the values); 29,000 tested, under 10 active;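 active = replicate mean of 50% or more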;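 note: 0% = median vehicle wells and 100% = positive control; 100 nL library stock added to about 50 µL; numbers are from one replicate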
YB-1 expr inh: YB-1 expression inhibition; U2OS, qRT-PCR YB-1 vs CDIP delta delta Cp, 16 h; active compounds read high; zero = DMSO, each unit about twofold; 30,000 compounds, 0.37% hits; delta delta Cp (YB-1 minus CDIP) (no concentration beside the values);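 active = delta delta Cp rounded down to an integer at or above 3, about 3 SD of DMSO wells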;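 note: higher means less YB-1 transcript or more CDIP transcript relative to DMSO; stock transfer was 100 nL into about 100 µL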
MITF inh: blocks MITF activity. inhibition, % (test concentration not listed). TRPM1 promoter luciferase, luminescence, 24 h. 37,000 compounds, 0.28% hits;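 active = most replicates at 85% or more, or half of them and the mean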;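 note: human melanocyte line stably carrying TRPM1 promoter luciferase reporter; 0% = vehicle wells and 100% = a positive control; the first replicate is given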
Hedgehog inh: Sonic Hedgehog pathway inhibition; AID 2313; Shh-LIGHT2 Gli-luciferase reporter, 30 h; 22,000 compounds, 2.1% hits; inhibition, % (concentration not given with the values);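 active = replicate mean of 65% or more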;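 note: pathway switched on by Shh-conditioned medium diluted 1 in 25 in low serum; 100 nL library stock added to about 40 µL; 0% = median of neutral wells and 100% = positive control level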
The depositor's hits bear a star; i = inactive; . = not tested or not shown. These rows are one share of the data; count on the stated rates, not on these rows.

SMILES | PD-1 reversal | YB-1 expr inh | MITF inh | Hedgehog inh
CC(C)NC(=O)N(C)C[C@@H]1OCCCC[C@@H](C)Oc2ccc(NC(=O)Nc3ccccc3)cc2C(=O)N([C@H](C)CO)C[C@@H]1C | 1.5 | 0.463 | 5.8 | -35.9
CC1CCN(C(=O)c2ccc(C(C)(C)C)cc2)CC1 | 3.2 | 0.00388 | -32.7 | -67.2
C[C@H](CO)N1C[C@H](C)[C@@H](CN(C)CC2CCCCC2)Oc2ccc(NC(=O)Cc3ccccc3)cc2C1=O | . | -0.245 | 6.8 | -11.4
C[C@@H]1CCCCO[C@H](CN(C)S(=O)(=O)c2cccs2)[C@@H](C)CN([C@H](C)CO)C(=O)c2cc(NC(=O)NC3CCCCC3)ccc2O1 | -0.7 | -0.125 | 6.3 | -3.6
COc1ccc(S(=O)(=O)N(C)C[C@@H]2Oc3ccc(NS(=O)(=O)c4ccc(C)cc4)cc3CC(=O)N([C@H](C)CO)C[C@H]2C)cc1 | 0.2 | 0.383 | 3.5 | 33.9
CS(=O)(=O)N(CC(=O)Nc1cccc(C(F)(F)F)c1)c1ccc(Br)cc1 | -6.9 | . | -22.5 | .
C=C(C(=O)O)[C@@H]1CC[C@@]2(C)CC[C@H](O)[C@@]2(C(C)=O)C1 | 2.7 | -0.148 | -10.2 | -8.6
COc1ccc(S(=O)(=O)N(C)C[C@@H]2Oc3ccc(NS(=O)(=O)c4ccc(Cl)cc4)cc3C(=O)N([C@H](C)CO)C[C@@H]2C)cc1 | -1.4 | -0.16 | -12.7 | 28.4
C[C@@H]1CN([C@H](C)CO)C(=O)c2cccc(NS(=O)(=O)c3ccccc3)c2O[C@@H]1CN(C)S(=O)(=O)c1cccs1 | 1.2 | 0.27 | 0.6 | -8.4
C[C@H]1CN([C@@H](C)CO)C(=O)Cc2cc(NC(=O)C3CC3)ccc2O[C@H]1CN(C)C(=O)Nc1ccc2c(c1)OCO2 | 0.6 | 0.416 | -1.2 | 37.4
O=C(c1ccc(F)cc1)n1nc(-c2ccc(Cl)cc2)nc1NCc1ccco1 | -0.3 | . | -81.8 | .
C[C@H]1CN([C@@H](C)CO)C(=O)c2cccc(N(C)C)c2O[C@@H]1CN(C)C(=O)Nc1ccc(C(F)(F)F)cc1 | -0.2 | -0.295 | 6.8 | -29.7
CC(C)NC(=O)Nc1ccc2c(c1)C(=O)N([C@H](C)CO)C[C@H](C)[C@H](CN(C)Cc1ccc(C(=O)O)cc1)O2 | 0.1 | -0.529 | -14.0 | 13.7
C[C@@H]1CN([C@@H](C)CO)C(=O)Cc2cc(NS(=O)(=O)c3cn(C)cn3)ccc2O[C@@H]1CN(C)Cc1ccc(C(=O)Nc2ccccc2N)cc1 | 0.6 | -0.574 | -10.3 | .
COc1ccc(S(=O)(=O)N(C)C[C@@H]2Oc3ccc(NC(=O)Nc4ccc(C(F)(F)F)cc4)cc3CC(=O)N([C@H](C)CO)C[C@@H]2C)cc1 | -1.8 | -0.0891 | 30.9 | 45.7
C[C@H]1CN([C@@H](C)CO)C(=O)Cc2cc(NC(=O)Cn3cnnn3)ccc2O[C@@H]1CN(C)Cc1ccc(C(=O)Nc2ccccc2N)cc1 | 1.9 | -0.4 | -3.0 | .
COc1ccc(NC(=O)Nc2cccc3c2O[C@@H](CN(C)C(=O)Nc2ccc(OC)cc2)[C@@H](C)CN([C@H](C)CO)C3=O)cc1 | 1.5 | 0.415 | -17.9 | -17.0
C[C@@H]1CN([C@H](C)CO)C(=O)c2cccc(NS(C)(=O)=O)c2O[C@@H]1CN(C)Cc1ccc(C(=O)O)cc1 | 1.4 | -0.00666 | -1.0 | -51.9
Cc1ccc(NC(=O)Cn2ccc([N+](=O)[O-])n2)cc1C | 0.5 | . | -17.2 | .
Cc1ccc(S(=O)(=O)Nc2cccc3c2O[C@@H](CN(C)CC2CCCCC2)[C@H](C)CN([C@@H](C)CO)C3=O)cc1 | 3.1 | -0.822 | -9.2 | -4.3
COc1ccc(S(=O)(=O)Nc2ccc3c(c2)C(=O)N([C@H](C)CO)C[C@@H](C)[C@@H](CN(C)C(=O)Nc2cccc4ccccc24)O3)cc1 | 0.4 | -0.5 | 9.9 | 5.7
CC(C)NC(=O)N(C)C[C@H]1Oc2ccc(NC(=O)CCC(F)(F)F)cc2CC(=O)N([C@@H](C)CO)C[C@@H]1C | . | -0.0427 | 5.6 | -0.5
COc1ccc(CCNC(=O)c2cc3ccccc3oc2=O)cc1OC | 0.1 | . | -51.3 | .
C[C@@H]1CN([C@H](C)CO)C(=O)c2cccc(NC(=O)c3ccncc3)c2O[C@@H]1CN(C)C | 0.1 | -0.219 | 3.5 | 2.0
O=C(Oc1ccccc1OC(=O)c1ccccc1)c1ccccc1 | -2.7 | 0.178 | 10.8 | 0.3
COc1ccc(CN(C)C[C@@H]2Oc3ccc(NC(=O)Nc4c(C)noc4C)cc3CC(=O)N([C@H](C)CO)C[C@H]2C)cc1 | -0.1 | -0.379 | -5.7 | .
Cn1cnnc1SC1CCCCC1NS(=O)(=O)c1ccc(Cl)cc1 (stereo unspecified) | 3.3 | . | -23.4 | .
Cc1cc(C)c2nc(-c3ccccn3)cc(C(=O)NCCc3ccc(S(N)(=O)=O)cc3)c2c1 | -1.1 | . | 16.1 | .
C[C@H]1CN([C@@H](C)CO)C(=O)c2cc(NC(=O)CCC(F)(F)F)ccc2O[C@@H]1CN(C)CC1CC1 | 1.2 | -0.342 | -13.0 | 12.3
COc1ccc(NC(=O)N(C)C[C@H]2Oc3ccc(NC(=O)Nc4c(C)noc4C)cc3CC(=O)N([C@H](C)CO)C[C@H]2C)cc1 | 1.5 | 0.139 | 5.2 | 11.1

Whole records, looked up by structure. Order of screens: PD-1 reversal, YB-1 expr inh, MITF inh, Hedgehog inh
Results for `C[C@@H]1CCCCO[C@H](CN(C)S(=O)(=O)c2cccs2)[C@@H](C)CN([C@H](C)CO)C(=O)c2cc(NC(=O)NC3CCCCC3)ccc2O1` → -0.7, -0.125, 6.3, -3.6
Results for `Cc1ccc(NC(=O)Cn2ccc([N+](=O)[O-])n2)cc1C` → 0.5, ., -17.2, .
Results for `COc1ccc(CN(C)C[C@@H]2Oc3ccc(NC(=O)Nc4c(C)noc4C)cc3CC(=O)N([C@H](C)CO)C[C@H]2C)cc1` → -0.1, -0.379, -5.7, .

Next part:
SMILES | PD-1 reversal | YB-1 expr inh | MITF inh | Hedgehog inh
Cc1cc2cc3c(C)cc(=O)oc3c(C)c2o1 | . | 0.0865 | -69.1 | -62.6
Cc1noc(C)c1NC(=O)N(C)C[C@@H]1OCCCC[C@@H](C)Oc2ccc(NS(C)(=O)=O)cc2C(=O)N([C@H](C)CO)C[C@@H]1C | 3.1 | 0.0127 | -10.0 | -2.0
C[C@@H]1CCCCO[C@H](CN(C)C(=O)Cc2ccccc2)[C@@H](C)CN([C@H](C)CO)C(=O)c2cc(NS(=O)(=O)c3cn(C)cn3)ccc2O1 | 0.2 | -0.384 | 1.9 | 14.5
C[C@@H]1CN([C@H](C)CO)C(=O)c2cccc(NS(=O)(=O)c3cn(C)cn3)c2O[C@@H]1CN(C)C(=O)Nc1ccc(C(F)(F)F)cc1 | 1.5 | -0.305 | -1.2 | -18.5
CC1CC(=O)c2cnc(N3CCc4ccccc43)nc2C1 (stereo unspecified) | 0.0 | 0.115 | -9.0 | -89.6
C[C@H](CO)N1C[C@H](C)[C@H](CN(C)S(=O)(=O)c2ccccc2)Oc2ccc(NC(=O)Cn3cnnn3)cc2CC1=O | 1.4 | 0.222 | -5.2 | -36.2
C[C@@H]1CN([C@H](C)CO)C(=O)c2cccc(N(C)C)c2O[C@H]1CN(C)S(C)(=O)=O | 2.2 | 0.109 | 0.1 | -19.9
C[C@H](CO)N1C[C@H](C)[C@@H](CN(C)C(=O)Nc2ccc(C(F)(F)F)cc2)Oc2c(NC(=O)c3cnccn3)cccc2C1=O | . | 0.344 | -1.0 | 3.9
C[C@H](CO)N1C[C@H](C)[C@H](CN(C)C(=O)Nc2ccc3c(c2)OCO3)Oc2ccc(NC(=O)CCCCCC(=O)Nc3ccccc3N)cc2C1=O | 0.3 | 0.0268 | -0.8 | .
CCOC(=O)c1c(NC(=S)NCc2cc(C)n(C)n2)sc2c1CCCC2 | -0.8 | . | -8.9 | .
CNC[C@@H]1Oc2ccc(NC(=O)Nc3cccc4ccccc34)cc2CC(=O)N([C@@H](C)CO)C[C@@H]1C | -0.9 | 0.0742 | 5.3 | -18.9
Cc1noc(C)c1NC(=O)N(C)C[C@H]1Oc2c(NC(=O)Nc3cccc4ccccc34)cccc2C(=O)N([C@H](C)CO)C[C@H]1C | -0.4 | 0.0166 | 6.4 | -21.2
COc1ccc(S(=O)(=O)Nc2ccc3c(c2)C(=O)N([C@H](C)CO)C[C@H](C)[C@H](CN(C)C(=O)Nc2ccc(F)cc2)OCCCC[C@@H](C)O3)cc1 | -0.9 | -0.148 | 7.0 | -38.1
C[C@@H]1CN([C@@H](C)CO)C(=O)c2cccc(NC(=O)C3CC3)c2O[C@@H]1CN(C)Cc1ccccc1 | 0.7 | 0.212 | -3.9 | -4.9
C[C@H]1CN([C@@H](C)CO)C(=O)Cc2cc(NC(=O)Nc3ccc(F)cc3)ccc2O[C@H]1CN(C)Cc1ccc(C(=O)O)cc1 | 0.5 | 0.617 | -10.1 | .
Cc1noc(C)c1S(=O)(=O)Nc1ccc2c(c1)C(=O)N([C@H](C)CO)C[C@@H](C)[C@H](CN(C)S(=O)(=O)c1ccc(F)cc1)O2 | . | 0.0331 | 0.3 | 0.1
C[C@@H]1CN([C@@H](C)CO)C(=O)c2cc(NC(=O)Nc3cccc4ccccc34)ccc2O[C@@H]1CN(C)C(=O)Nc1ccc(C(F)(F)F)cc1 | -2.7 | -0.223 | 20.4 | -37.1
CCOc1ccc(-c2nc3ccc(-c4nc5ccc(N6CCN(C)CC6)cc5[nH]4)cc3[nH]2)cc1 | . | 0.895 | 79.5 | i
O=C(COc1ccc2ccccc2c1)Nc1ccccc1C(=O)Nc1ccc(F)cc1 | -0.9 | . | 9.8 | .
Cc1cc2c(CO)cc(SCC(O)C(=O)O)cc2o1 (stereo unspecified) | . | 0.229 | . | -11.0
COC(=O)c1ccccc1NC(=O)CC1Sc2ccc(C(F)(F)F)cc2NC1=O (stereo unspecified) | 0.6 | . | 0.5 | .
Cc1ccc(S(=O)(=O)Nc2cccc3c2O[C@@H](CN(C)Cc2ccncc2)[C@H](C)CN([C@H](C)CO)C3=O)cc1 | 0.7 | 0.186 | -3.9 | -6.2
C[C@@H]1CN([C@@H](C)CO)C(=O)c2cc(NS(=O)(=O)c3cn(C)cn3)ccc2O[C@@H]1CN(C)C(=O)Nc1cccc2ccccc12 | 1.8 | -0.0917 | -0.6 | .
COc1ccc(S(=O)(=O)Nc2ccc3c(c2)CC(=O)N([C@H](C)CO)C[C@@H](C)[C@@H](CN(C)Cc2ccc(C(=O)Nc4ccccc4N)cc2)O3)cc1 | -0.8 | 0.387 | -11.7 | .
C[C@H]1CN([C@@H](C)CO)C(=O)Cc2cc(NS(=O)(=O)c3ccc(F)cc3)ccc2O[C@@H]1CN(C)S(=O)(=O)c1cn(C)cn1 | . | 0.0955 | 4.3 | -53.2
CC(C)c1ccc(OCC(=O)Nc2ccc(O)cc2C(=O)O)cc1 | 0.0 | . | -2.6 | .
C[C@@H]1CCCCO[C@H](CN(C)S(=O)(=O)c2cn(C)cn2)[C@@H](C)CN([C@H](C)CO)C(=O)c2cc(NS(=O)(=O)c3ccc(F)cc3)ccc2O1 | . | -0.0575 | 4.5 | .
C=C1C(=O)OC2CC(C)C3(/C=C/C(C)=O)OC3CC12 (stereo unspecified) | -9.5 | -0.204 | -6.9 | -14.9
C/C=C1\[C@H]2C=C(C)C[C@]1(N)c1ccc(=O)[nH]c1C2 | . | 0.0442 | -7.8 | 16.0
C[C@@H]1CN([C@@H](C)CO)C(=O)Cc2cc(NC(=O)Cc3cn(C)c4ccccc34)ccc2O[C@@H]1CN(C)S(=O)(=O)c1ccccc1 | . | 0.219 | 11.2 | 12.6
Cc1cccc(C)c1Nc1scc(C)[n+]1C | 1.5 | 0.476 | 1.4 | -16.8
CNC[C@@H]1Oc2c(NS(=O)(=O)c3ccc(OC)cc3)cccc2C(=O)N([C@H](C)CO)C[C@@H]1C | 1.5 | 0.0381 | -9.7 | 2.0
CC(C)NC(=O)Nc1ccc2c(c1)C(=O)N([C@H](C)CO)C[C@@H](C)[C@@H](CN(C)Cc1ccc(C(F)(F)F)cc1)O2 | 0.9 | -0.257 | -2.6 | .
Cc1cc(=O)oc2cc(OCc3cccc(F)c3)ccc12 | -0.2 | 0.0953 | -88.8 | -75.4
Cc1noc(C)c1NC(=O)Nc1ccc2c(c1)C(=O)N([C@@H](C)CO)C[C@H](C)[C@@H](CN(C)Cc1ccc(C(=O)Nc3ccccc3N)cc1)O2 | 0.4 | 0.296 | -5.9 | .
C[C@@H]1CN([C@@H](C)CO)C(=O)c2cc(NS(=O)(=O)c3ccc(Cl)cc3)ccc2O[C@@H]1CN(C)S(=O)(=O)c1ccccc1 | -2.3 | -0.0192 | -1.6 | 19.6
C[C@@H]1CCCCO[C@@H](CN(C)Cc2ccc(C(=O)O)cc2)[C@@H](C)CN([C@H](C)CO)C(=O)c2cc(N(C)C)ccc2O1 | -1.0 | -0.00738 | -11.1 | 32.9

Assay outcomes: PubChem BioAssay, Broad Institute
